# Hsc70 – small molecules displacing fluorescent ligand from Hsc70 – biochemical, fluorescence polarization, primary screen (AID 568); Hsc70 fluorescence polarization, probe displacement; higher % means a stronger effect; strong numbers were not always called active; 83,000 tested, under 10 active; displacement, % at 20 µM; hits with a dose series show IC50 in µM;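 active = displacement above 50% without optical interference and an IC50 on retest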;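 note: ATPase domain with a fluorescein-tagged ATP probe; 0% = vehicle and 100% = excess ADP; read after one hour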
# MT1-MMP promoter – inhibitors of MT1-MMP promoter transcription, cell-based, luciferase reporter, luminescence (AID 618) | hit rate 0.62% among 87,000 | MT1-MMP promoter luciferase reporter cells, luminescence | calls from a first round at 10 µM; hits with a dose series show EC50 in µM;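 active = over half of the reporter light lost at 10 µM or EC50 under 50 µM; inactive = the rest and hits that failed the dose series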;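 note: actives suppress MT1-MMP promoter-driven transcription so potencies describe inhibitors; HT1080 fibrosarcoma cells; overnight exposure; toxic or luciferase-blocking compounds were not removed from the actives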
# WNV NS2B-NS3 inh – blocks West Nile virus NS2B-NS3 protease activity. P06935. WNV NS2B-NS3 protease, fluorogenic substrate Ex360/Em465; stronger effect = lower value. z-score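 (tested at a level between 10 and 100 µM)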. hit rate 0.18% among 65,000. AID 577;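 active = z-score at -3 or under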;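 note: score is relative to mean and spread of the compound wells of a plate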
# Target sequence (P06935 1371-1501 limits assumed): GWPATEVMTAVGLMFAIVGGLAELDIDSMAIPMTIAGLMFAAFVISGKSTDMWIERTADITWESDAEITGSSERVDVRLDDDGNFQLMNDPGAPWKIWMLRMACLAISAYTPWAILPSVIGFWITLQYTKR
# Target sequence (P06935 1502-1679 limits assumed): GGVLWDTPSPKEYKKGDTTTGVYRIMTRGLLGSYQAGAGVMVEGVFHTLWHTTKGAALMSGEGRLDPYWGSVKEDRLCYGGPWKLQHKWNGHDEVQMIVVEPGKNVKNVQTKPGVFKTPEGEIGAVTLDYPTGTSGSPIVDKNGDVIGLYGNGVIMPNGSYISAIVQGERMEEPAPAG
# Starred values were filed as active, the others as inactive; i = inactive; . = not tested or not shown; + = active, no number.
SMILES	Hsc70	MT1-MMP promoter	WNV NS2B-NS3 inh
O=C(O)C1CC(=O)N(CCc2c[nH]c3ccccc23)C1 (stereo not given)	3.9%	i	0.27
COCCOCCn1c(CCCO)nc2ccccc21	-2.9%	i	-0.38
CCOC(=O)c1ccc(N2N=C(C)/C(=C/C=C/c3ccco3)C2=O)cc1	2.0%	i	.
CC(C)Cc1nc2oc3c(NCc4cccnc4)ncnc3c2c2c1CCC2	-5.3%	i	-0.19
O=C(CNS(=O)(=O)c1ccc(Br)s1)Nc1ccc2c(c1)OCCO2	-0.5%	i	-1.7
O=c1ccc2cc(S(=O)(=O)N3CCN(c4cc(Cl)ccc4Cl)CC3)ccc2o1	-0.7%	i	.
CCOc1ccc(OCC)c(NC(=O)Cn2cccc2)c1	0.0%	i	0.6
CCN(CC)CCOC(=O)C1(c2ccccc2)CCOCC1	2.0%	i	-1.2
Cc1nnc(NC(=O)C(C)Sc2nncn2C)s1 (stereo not given)	-4.1%	i	0.44
Cn1c(SCc2nc(-c3ccc(Cl)cc3)no2)nnc1-c1ccco1	1.2%	i	0.94
CCCN(CCO)Cc1cccc(Br)c1	1.9%	i	-0.2
Cc1c(C2N3CC4(C)CN2CC(C)(C3)C4=O)c2ccccc2n1C (stereo not given)	0.3%	i	-0.4

# Continued:
SMILES	Hsc70	MT1-MMP promoter	WNV NS2B-NS3 inh
CC(C)c1ccc(/C=N/n2nnnc2Nc2ccccc2)cc1	4.5%	i	.
Cc1c(C(=O)OCC(C)C)[nH]c2c1C(=O)CC(c1ccco1)C2 (stereo not given)	-1.3%	+	0.14
O=C(CSCc1ccc(Cl)cc1)Nc1ccc2c(c1)OCO2	0.4%	i	.
Cc1cc2[nH]c(=O)c3ccccc3n2n1	2.5%	i	.
Nc1cc(-c2ccc(Br)cc2)nn1S(=O)(=O)c1ccccc1	1.9%	i	-0.72
CCOCc1nc(C)c(Cl)c(NS(=O)(=O)c2ccc(N)cc2)n1	-1.6%	i	-0.58
C=CCn1c(SCC(=O)Nc2c(C)cccc2C)nnc1-c1ccncc1	-0.7%	i	0.9
Cc1nn(C(=O)c2cc3sccc3[nH]2)c(C)c1C	0.4%	i	-0.2
O=C(CN1C(=O)C2C3C=CC(C3)C2C1=O)NCCC1=CCCCC1 (stereo not given)	-2.7%	i	0.24
COc1ccc(-c2csc(N(CCCN(C)C)C(=O)c3cccs3)n2)cc1	-3.2%	i	-1.1
C/C(N)=C(/C#N)C(=O)CSc1n[nH]c(-c2ccccc2Br)n1	3.9%	i	0.07
O=C(NCc1ccc(Cl)c(Cl)c1)c1ccco1	-4.6%	i	-0.0096

# (more compounds)
SMILES	Hsc70	MT1-MMP promoter	WNV NS2B-NS3 inh
N#CCSc1nnc(COc2cccc3ccccc23)n1-c1cccc(Cl)c1	-5.8%	i	0.67
Cc1ccc(C)c(S(=O)(=O)C(C#N)c2nc3ccccc3nc2N2CCCC2)c1 (stereo not given)	60%	i	0.24
O=C(CSc1nnc(-c2cccc(Cl)c2)o1)Nc1ccc2c(c1)OCCO2	-3.2%	i	.
Fc1ccccc1OCCCCn1cncn1	-4.3%	i	-0.94
Cc1c(C(=O)NCC2COc3ccccc3O2)oc2ccc(S(=O)(=O)N(C)C3CCCCC3)cc12 (stereo not given)	4.4%	i	.
CCOC(=O)N1CCC(NC(=O)C2CCC(CNS(=O)(=O)c3ccc(OC)cc3)CC2)CC1 (stereo not given)	7.7%	i	0.1
CCOC(=O)c1c(C)c(C(=O)Nc2ccc3c(c2)OCCO3)c(C)n1CC	1.8%	i	-0.92
Cc1cc(C)nc(NS(=O)(=O)c2ccc(N/C=C3\CCCC3=O)cc2)n1	-3.2%	i	.
CCCc1[nH]nc2c1C(c1ccccc1OCC)C(C#N)=C(N)O2 (stereo not given)	-3.8%	i	-0.53
CCOC(=O)c1nn(-c2ccc(Cl)cc2)c2nc(CC)c(C#N)c(=O)n12	0.7%	i	.
CCc1nc(SCC(=O)Nc2ccnc3ccccc23)n[nH]1	2.9%	i	-0.99
O=C(OCC(=O)N1CCCC1)c1cncc(Br)c1	5.1%	i	-0.06

# Next part
SMILES	Hsc70	MT1-MMP promoter	WNV NS2B-NS3 inh
Cc1cc(C)c(C#N)c(SCS(=O)Cc2ccc(Cl)cc2)n1 (stereo not given)	-4.8%	i	1.7
Cc1nc(N2CCN(c3ncccn3)CC2)c2oc3ccccc3c2n1	4.7%	i	1.3
CC(NC(=O)c1ccco1)C(=O)N1CCc2ccccc2C1 (stereo not given)	3.6%	i	.
O=C(CSc1ccc2c(c1)OCCO2)NC(=O)NC1CCCC1	-1.8%	i	-0.97
Cc1cc(C)n2nc(SCC(=O)N(C(C)C)C(C)C)nc2n1	7.9%	i	0.08
COc1ccccc1N1CCN(CC(=O)Nc2ccc(CN3CCCCC3)cc2)CC1	-0.1%	i	-0.21
O=C(CN1CCN(S(=O)(=O)c2ccc(F)cc2)CC1)Nc1cc(C(F)(F)F)ccc1Cl	-3.3%	i	1.8
CCC(C)NC(=O)c1ccccc1NC(=O)CN1C(=O)c2ccccc2S1(=O)=O (stereo not given)	3.3%	i	0.4
Cc1occc1-c1nnc(SCC(=O)N2CCOCC2)n1CC(C)C	4.4%	i	.
O=C(COc1ccccc1Cl)N1CCN(c2ccc(F)cc2)CC1	-1.3%	i	-0.73
CCOc1cccc(OCCOCCn2cnc3ccccc3c2=O)c1	-3.3%	i	.
N#Cc1cc(Oc2ccc(Cl)cc2)c(N2CCOCC2)cc1C#N	5.5%	i	.

# Continued:
SMILES	Hsc70	MT1-MMP promoter	WNV NS2B-NS3 inh
COc1ccc(CN2CC(C(=O)NCCN3CCOCC3)CC2=O)cc1 (stereo not given)	-4.6%	i	-1.6
O=S(=O)(c1cccs1)N1CCN(Cc2nc3ccccc3s2)CC1	0.9%	i	-0.05
Cc1ccc(N2CC(C(=O)NCCC(C)C)CC2=O)cc1 (stereo not given)	-1.8%	i	1.1
COc1ccc(C(C)=O)cc1CN1C(=O)NC2(CCCCC2C)C1=O (stereo not given)	6.4%	i	.
CN1CCN(c2nc(C#N)cc(-c3ccccc3)n2)CC1	-0.3%	i	.
COc1cc(CSc2nnnn2-c2ccc(C)cc2)cc(OC)c1OC	1.5%	i	-0.16
COc1ccc(OC)c(C(=O)CC2OC(=O)c3ccccc32)c1 (stereo not given)	1.9%	i	-0.74
Cn1cccc1Cc1nnc(SCC(=O)N2CCc3ccccc32)n1-c1ccc(F)cc1	0.1%	i	0.89
CC(C)c1nc2oc3c(NCC4CCCO4)ncnc3c2c2c1COC(C)(C)C2 (stereo not given)	-3.9%	i	-0.21
c1ccc(-c2nc3ccccc3s2)nc1	-1.1%	i	-1.3
Clc1cccc(OCCn2cncn2)c1Cl	1.1%	i	0.47
CCN(CC)CCCn1c(=S)[nH]c2ccccc2c1=O	-3.1%	i	-0.89

# Next part:
SMILES	Hsc70	MT1-MMP promoter	WNV NS2B-NS3 inh
CCC(=O)N1CCc2cc(S(=O)(=O)NC(Cc3ccccc3)C(=O)NC3CCCC3)ccc21 (stereo not given)	0.7%	i	-0.86
Cc1cc(C)c2nc(N3CCC(C(=O)N4CCCC4)CC3)sc2c1	-5.7%	i	0.19
CC1=C(C(=O)NCCCOC(C)C)C2(CCC(C)CC2)OC1=O (stereo not given)	2.0%	i	-0.61
O=S(=O)(c1ccccc1)c1nc(-c2ccccc2)oc1N1CCCCC1	-3.2%	i	.
O=C(N/N=C/c1ccc[nH]1)c1cccnc1	4.9%	i	.
CCn1c(SCC(=O)Nc2ccc3c(c2)oc2ccccc23)nnc1-c1ccc(N)cc1	-5.0%	i	.
COc1ccc2c(c1)cc1n2CCN=C1N	3.0%	i	0.37
O=C(Nc1cccnc1)c1coc(=O)c2ccccc12	1.8%	i	-0.9
CC1CCN(C(=O)CSc2nc(N)c3c4c(sc3n2)CN(C)CC4)CC1	2.6%	i	-0.42
CCOc1ccc(CC(C(=O)NN)C(=O)NN)cc1CN(C)C	2.3%	i	.
Cc1sc(/N=C/c2c(O)ccc3ccccc23)c(C#N)c1C	-2.2%	i	.
O=C(c1ccccc1)c1ccc2nc(N3CCCCC3)c3nncn3c2c1	-6.6%	i	-0.61

# More compounds.
SMILES	Hsc70	MT1-MMP promoter	WNV NS2B-NS3 inh
CCCCc1nc(SCC(=O)Nc2cc(C)on2)n[nH]1	8.3%	i	-1.6
O=C(NCCCN1CCOCC1)C1CC(=O)N(C2CCCCC2)C1 (stereo not given)	-12%	i	-1.7
CC1CCCC(C)N1CCNC(=O)C1CCN(S(=O)(=O)N2CCCCC2)CC1 (stereo not given)	-1.5%	i	0.03
Cc1ccc(C(=O)COc2cccc(NC(=O)c3ccco3)c2)cc1	-1.8%	i	0.07
CCOC(=O)N1CCN(S(=O)(=O)c2ccc3c(c2)SCC(=O)N3)CC1	3.6%	i	-0.54
O=C(CN1C(=O)NC2(CCCC2)C1=O)Nc1cccc(-c2nnc3n2CCCCC3)c1	118%	i	-1.1
Cc1ccc(OCCN2C(=O)c3ccccc3C2=O)c(C)c1	-6.1%	i	-0.65
CCCC1(C(=O)OCC)NC(c2ccc(O)cc2)C2C(=O)N(c3ccc4c(c3)OCCO4)C(=O)C21 (stereo not given)	1.3%	i	.
O=C(COc1ncnc2ccccc12)N1CCN(C(=O)c2ccco2)CC1	1.5%	i	-0.39
CCCCCOc1ccc(NS(C)(=O)=O)cc1	-7.9%	i	1.5
CCCC(=O)C1=C(O)C(C(=O)OC)C(C)(C)CC1=NC (stereo not given)	1.0%	i	-0.7
O=C(Nc1ccc2oc(-c3ccccc3)nc2c1)c1cccnc1	0.1%	i	-1

# One compound at a time, from the list above:
# `CCOC(=O)N1CCN(S(=O)(=O)c2ccc3c(c2)SCC(=O)N3)CC1` reads Hsc70: 3.6%; MT1-MMP promoter: i; WNV NS2B-NS3 inh: -0.54
# `O=C(COc1ncnc2ccccc12)N1CCN(C(=O)c2ccco2)CC1` reads Hsc70: 1.5%; MT1-MMP promoter: i; WNV NS2B-NS3 inh: -0.39

# (listing goes on)
SMILES	Hsc70	MT1-MMP promoter	WNV NS2B-NS3 inh
O=C(NCc1cccnc1)c1ccc(NC(=O)c2ccco2)cc1	-3.3%	i	.
O=C(O)C1CCCCC1C(=O)Nc1nccs1 (stereo not given)	8.2%	i	-0.01
O=C(NCCCN1CCOCC1)c1cc(-c2ccc(Br)cc2)on1	1.6%	i	0.41
CSc1nsc(SCc2cnc(C)nc2N)n1	2.0%	i	0.13
CCOc1ccccc1-n1c(SCC(N)=O)nc2ccccc2c1=O	-3.8%	i	0.52
O=c1ccc(=O)n2n1CC(O)C2	1.6%	i	-0.26
Cn1c(SCC(=O)N2CCN(c3ccccc3)CC2)nnc1-c1c[nH]c2ccccc12	4.5%	i	0.3
Nc1cnn(C2CCCO2)c(=O)n1 (stereo not given)	-1.7%	i	0.75
Cc1cccc(C(=O)OCC(=O)Nc2ccc(N3CCCCC3)cc2)c1O	-6.0%	i	-0.68
CCCn1c(-c2ccc(F)cc2)n[nH]c1=S	-0.3%	i	-0.09
CCOC(=O)c1ccc(N2C(=O)CC(NC3CCN(C(=O)c4cccc(Cl)c4)CC3)C2=O)cc1 (stereo not given)	-0.9%	i	-0.7
COc1ccc(CC(=O)Nc2ccc(-c3noc(-c4ccc(Cl)cc4)n3)cc2)cc1	-1.6%	i	.

# Filtered by structure: the compounds so far containing a COOH group.
SMILES	Hsc70	MT1-MMP promoter	WNV NS2B-NS3 inh
O=C(O)C1CC(=O)N(CCc2c[nH]c3ccccc23)C1 (stereo not given)	3.9%	i	0.27
O=C(O)C1CCCCC1C(=O)Nc1nccs1 (stereo not given)	8.2%	i	-0.01

# (further entries)
SMILES	Hsc70	MT1-MMP promoter	WNV NS2B-NS3 inh
Cn1c(NC(=O)C2CCCC2)cc(=O)n(C)c1=O	-0.6%	i	-0.67
CCOC(=O)c1sc(/N=C/N(C)C)c(C(=O)OCC)c1C	-7.6%	i	-0.17
CC(NC(=O)c1cccs1)C(c1cccs1)N1CCN(c2ccccc2)CC1 (stereo not given)	3.9%	i	-1.2
Cc1cnc(NC(=O)c2cc3c(s2)CCCC3)s1	2.6%	i	.
C=C(C)Cn1c(-c2ccc(OC)cc2)nc2ccccc21	-5.4%	i	0.6
O=C(CCCN1C(=O)c2ccccc2C1=O)N1CCCCC1	-3.2%	i	.
O=C(O)CC(Cn1[nH]nnc1=S)c1ccccc1 (stereo not given)	-1.8%	i	.
N#Cc1c(NC(=O)CSc2ncccn2)oc(-c2ccccc2)c1-c1ccccc1	-4.5%	i	.
Cn1cc(SCC(=O)O)c2ccccc21	-0.9%	i	.
CC(C)CC(=O)Nc1ccc2c(c1)oc1ccccc12	-1.2%	i	.
O=C(Nc1ccc2c(c1)OCO2)C1CCN(c2ccc(S(=O)(=O)N3CCOCC3)cc2)CC1	3.8%	i	-0.21
COc1ccc(C2(C)NC(=O)N(CC(=O)NCCC3=CCCCC3)C2=O)cc1OC (stereo not given)	-2.3%	i	.

# Carrying on.
SMILES	Hsc70	MT1-MMP promoter	WNV NS2B-NS3 inh
COc1ccc(S(=O)(=O)Nc2ccc(F)c(F)c2)cc1Cl	-0.3%	i	1.3
CN(C)c1ncnc2c1ncn2C1OC(CO)C(O)C1O (stereo not given)	0.6%	i	.
Cc1ccc(CCNC(=O)C2CCN(C(=O)c3sccc3-n3cccc3)CC2)cc1	4.0%	i	-0.04
CSc1ccccc1C(=O)NC1CC2CCC1C2 (stereo not given)	4.1%	i	0.09
CCCCCn1ccc(=O)c2c(C(F)(F)F)nccc21	-1.1%	i	.

# Bioassay records deposited in PubChem BioAssay by several laboratories.
